YopH inh: inhibitors of Yersinia enterocolitica YopH tyrosine phosphatase; fluorescence Ex485/Em525; inhibition, %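 (about 10 µM by stock and volumes)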; 140,000 compounds, 0.16% hits;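 active = inhibition of 50% or more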;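 note: controls were vehicle for no effect and minimum signal wells for full effect; inactives centre near -20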
Mtb betalactam: beta-lactam sensitization of Mtb H37Rv. 330,000 compounds, 0.27% hits. inhibition, % at 25 µM. M. tuberculosis H37Rv growth with meropenem, percent inhibition; hits of this screen are not shown here;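 active = about 74% or more and at least 40 points above the plate without the antibiotic, then above 30% in a dose series; inconclusive = first-round hits that could not be retested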;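 note: growth measured after seven days incubation then overnight dye step; 0% = bacteria only wells and 100% = bacteria with antibiotic; twin plates without the antibiotic show which effects depend on it; some results filed as inactive read as strong as hits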
Mtb H37Rv: M. tuberculosis H37Rv growth inhibitors, H37Rv strain (AID 1626); 220,000 compounds, 0.95% hits; M. tuberculosis H37Rv growth inhibition; higher % means a stronger effect; inhibition, % at 10 µM; hits with a dose series show IC50 in µM;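 active = confirmed in a dose series; inconclusive = inhibition above 80% but not taken into the dose series; inactive = below 80% or under 30% at every dose of the series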;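 note: bacteria incubated seven days before Alamar blue readout; 0% = bacteria only wells and 100% = bacteria with antibiotic wells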
RecA splice inh: inhibitors of M. tuberculosis RecA intein splicing; AID 2221; P9WHJ3; inhibition, %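 (about 9 µM by stock and volumes)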; cell-free RecA intein splicing, fluorescence; 290,000 compounds, 0.75% hits; in the data active = inhibition above about 30%; inconclusive = no clear call, values can overlap the other calls;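 note: 0% = vehicle wells and 100% = reference inhibitor control wells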
Target sequence (P9WHJ3 whole entry, looked up, canonical isoform): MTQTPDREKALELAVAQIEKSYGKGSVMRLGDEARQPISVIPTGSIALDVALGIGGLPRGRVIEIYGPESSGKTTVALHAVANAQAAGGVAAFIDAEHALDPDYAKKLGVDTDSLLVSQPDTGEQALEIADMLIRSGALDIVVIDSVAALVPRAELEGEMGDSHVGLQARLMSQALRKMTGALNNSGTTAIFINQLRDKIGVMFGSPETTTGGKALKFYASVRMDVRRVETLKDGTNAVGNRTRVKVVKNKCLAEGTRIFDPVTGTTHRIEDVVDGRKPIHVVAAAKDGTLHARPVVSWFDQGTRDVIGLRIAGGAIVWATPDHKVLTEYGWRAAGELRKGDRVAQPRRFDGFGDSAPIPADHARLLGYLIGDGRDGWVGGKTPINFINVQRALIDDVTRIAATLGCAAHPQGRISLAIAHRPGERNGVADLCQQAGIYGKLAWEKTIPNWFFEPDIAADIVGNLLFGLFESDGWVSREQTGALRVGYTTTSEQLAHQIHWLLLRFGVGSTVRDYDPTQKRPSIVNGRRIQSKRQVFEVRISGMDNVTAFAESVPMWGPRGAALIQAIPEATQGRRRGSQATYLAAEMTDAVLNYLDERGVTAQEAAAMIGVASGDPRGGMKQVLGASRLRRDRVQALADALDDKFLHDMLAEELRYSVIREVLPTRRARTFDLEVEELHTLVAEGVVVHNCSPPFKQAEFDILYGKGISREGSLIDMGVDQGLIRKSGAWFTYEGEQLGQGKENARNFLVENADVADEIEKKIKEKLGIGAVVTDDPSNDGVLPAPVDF
Arbovirus inh: antivirals against arbovirus infection; arbovirus infection cell-based antiviral screen; inhibition, % at 10 µM; 200,000 compounds, 0.37% hits;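 active = inhibition from about 30%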;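 note: bluetongue infection of BSR cells; cell survival read as ATP light after 72 h; 0% = infected wells without compound and 100% = uninfected wells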
Arbovirus inh repeat: recorded beside Arbovirus inh, whose call it bears; inhibition, %; measured here: 10K subset replicate screen; many hits read low in the repeat;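 first of two repeat runs on a subset; 0% = infected and 100% = uninfected wells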
The depositor's hits bear a star; ? = inconclusive; · = no result given. A portion of the library (hit frequency here may not be typical).

The opening six entries as a preview:
SMILES | YopH inh | Mtb betalactam | Mtb H37Rv | RecA splice inh | Arbovirus inh | others
O=C(COC(=O)C1CC1)Nc1nc(-c2ccc(F)c(F)c2)cs1 | · | 19 | · | -1.7 | ·
Cc1cnc(NC(=O)Nc2ccccc2)c(C)n1 | · | -2 | · | -1.3 | ·
Cc1cc(C)c(C)c(S(=O)(=O)NCc2ccc(C(=O)N3CCOCC3)cc2)c1C | · | -4 | · | -0.4 | ·
CCOc1ccc2nc(N(CCN(CC)CC)C(=O)c3ccc([N+](=O)[O-])cc3)sc2c1 | · | 19 | 11% | 0.6 | -11
c1ccc2c(c1)nc(NC1CCCCC1)c1nncn12 | -26 | -13 | 0% | -1.0 | 1 | Arbovirus inh repeat=2
Cc1cccc(C(=O)NNC(=O)c2ccc(-c3ccccc3)cc2)c1 | -24 | 15 | 3% | -4.6 | -3

Results, repeating the preview:
SMILES | YopH inh | Mtb betalactam | Mtb H37Rv | RecA splice inh | Arbovirus inh | others
O=C(COC(=O)C1CC1)Nc1nc(-c2ccc(F)c(F)c2)cs1 | · | 19 | · | -1.7 | ·
Cc1cnc(NC(=O)Nc2ccccc2)c(C)n1 | · | -2 | · | -1.3 | ·
Cc1cc(C)c(C)c(S(=O)(=O)NCc2ccc(C(=O)N3CCOCC3)cc2)c1C | · | -4 | · | -0.4 | ·
CCOc1ccc2nc(N(CCN(CC)CC)C(=O)c3ccc([N+](=O)[O-])cc3)sc2c1 | · | 19 | 11% | 0.6 | -11
c1ccc2c(c1)nc(NC1CCCCC1)c1nncn12 | -26 | -13 | 0% | -1.0 | 1 | Arbovirus inh repeat=2
Cc1cccc(C(=O)NNC(=O)c2ccc(-c3ccccc3)cc2)c1 | -24 | 15 | 3% | -4.6 | -3
COCC(COCCCNC(=O)Nc1ccc(Br)cc1)OC (stereo not given) | 10 | -12 | 2% | 1.4 | 4
COC(=O)CCC/C=C1/SCC(NC(=O)c2ccccc2)C1NC(C)=O (stereo not given) | · | -2 | -5% | 12 | 14
O=C(CNc1ccc2c(c1)OCO2)N/N=C\c1ccccc1Cl | -16 | 2 | 16% | 1.9 | -30
Cc1ccc(C(=O)Nc2ccc(S(=O)(=O)N3CCOCC3)cc2)cc1C | · | 6 | · | -2.2 | ·
Cc1ccc(S(=O)(=O)N2CCOCC2)cc1NC(=O)C(c1ccc(Cl)cc1)C(C)C (stereo not given) | · | -2 | · | 19 | ·
COc1cc(-c2nnc3sc(-c4ccco4)nn23)cc(OC)c1OC | -40 | 4 | -1% | 4.7 | -13
O=C(Nn1c(-c2ccc(F)cc2)nc2ccccc2c1=O)C1CCCCC1 | -14 | 10 | -7% | -1.2 | 11
Cc1ccc(N=Nc2c(N)n[nH]c2N)cc1 | · | -6 | · | 7.1 | ·
COc1ccc(N2C(=O)C3CCCCC3C2=O)cc1NC(=O)c1ccccc1 (stereo not given) | · | -6 | -8% | -1.8 | 8
Cc1cccc(NNC(N)=S)c1 | · | 99 | ? | 1.3 | -3
Nc1nc(SCC(=O)Nc2ccccc2)nc2nc3c(cc12)CCCC3 | 7 | 1 | 1% | -0.9 | -6
CC(Cc1ccccc1)NC(=S)CN1CCCC1=S (stereo not given) | · | -6 | 0% | -1.2 | ·
C=CCC1CCCCC12NC(=O)NC2=O (stereo not given) | -37 | -5 | -4% | 0.0 | 1
CN(C)S(=O)(=O)N(CC(=O)NCc1ccccc1)c1ccccc1 | -31 | 1 | -4% | -1.9 | 6
Cc1cccc(C2=N/C(=C\c3cccnc3)C(=O)O2)c1 | -40 | -9 | -4% | 1.0 | 1
CCOc1cc(CN2CCN(CCc3ccccc3)C(CCO)C2)ccc1OC (stereo not given) | · | -4 | 0% | -0.1 | -4
CCOC(=O)c1ccc(COc2nc3ccccc3nc2-c2ccccc2NC(C)=O)o1 | -36 | 5 | 7% | -5.5 | 7
CCOc1ccc(S(=O)(=O)NCCC(=O)N2CC(C)CC(C)C2)cc1 (stereo not given) | · | 0 | · | -4.4 | ·
O=C1OC(Nc2ccc(F)c([N+](=O)[O-])c2)c2ccccc21 (stereo not given) | · | -2 | · | -0.1 | ·

In the list so far, 2 contain a Cl atom.
SMILES | YopH inh | Mtb betalactam | Mtb H37Rv | RecA splice inh | Arbovirus inh | others
O=C(CNc1ccc2c(c1)OCO2)N/N=C\c1ccccc1Cl | -16 | 2 | 16% | 1.9 | -30
Cc1ccc(S(=O)(=O)N2CCOCC2)cc1NC(=O)C(c1ccc(Cl)cc1)C(C)C (stereo not given) | · | -2 | · | 19 | ·

Next records.
SMILES | YopH inh | Mtb betalactam | Mtb H37Rv | RecA splice inh | Arbovirus inh | others
O=C(NCc1ccccn1)c1cccc(NS(=O)(=O)c2cccc(F)c2)c1 | -30 | 0 | -3% | -0.7 | 0
O=C(CSc1n[nH]c(-c2ccncc2)n1)Nc1ccccc1C(F)(F)F | · | 0 | · | -0.4 | ·
COCCNC(=O)C(c1ccccc1C)N(CCOC)C(=O)Cn1nnc2ccccc21 (stereo not given) | -38 | -6 | 3% | 2.4 | -9
Cc1occc1-c1nnc(SCC(=O)Nc2nc(-c3ccccc3)cs2)o1 | -16 | 32 | 1% | 0.5 | 4
Cc1cc(C(=O)CSc2ncccn2)c(C)n1Cc1ccco1 | · | 1 | 6% | 2.2 | -22
O=C(Cn1nnc2c(cnn2-c2ccccc2)c1=O)NCc1cccs1 | -50 | -4 | -18% | -11 | 0
O=C(/C=C\Nc1ccc(S(=O)(=O)Nc2ncccn2)cc1)c1cccc2ccccc12 | · | -1 | 10% | -1.7 | ·
C=CCn1c(CNC(=O)c2cccs2)nnc1SCC(=O)c1ccc(Br)cc1 | -10 | 12 | 1% | 3.2 | 10
CCCn1c(CCNC(=O)c2cccs2)nc2ccccc21 | -2 | -2 | -3% | 3.1 | -2 | Arbovirus inh repeat=-5
Cc1ccc(NC(=O)c2cc(S(=O)(=O)NCCC3=CCCCC3)ccc2F)cc1F | -33 | -3 | 9% | -2.1 | 11
CCC(C)(C)n1nnnc1C(C(C)C)N(Cc1ccco1)Cc1cc2cc3c(cc2[nH]c1=O)OCO3 (stereo not given) | -3 | 0 | 9% | · | -4
CCCc1[nH]nc2c1C(c1ccc(O)c(OC)c1)C(C#N)=C(N)O2 (stereo not given) | -49 | -2 | · | 79* | -1
COc1ncnc2c1oc1nc(CC(C)C)c3c(c12)CCCC3 | -9 | · | -9% | · | -3
O=C(CS(=O)CC(=O)N(c1cccc(F)c1)C(C(=O)NC1CCCCC1)c1ccco1)Nc1ccc(F)cc1 (stereo not given) | -28 | -1 | -1% | 1.0 | 10
COc1cc(C(=O)Nn2c(C)nc3ccccc3c2=O)cc(OC)c1OC | · | -1 | · | -0.4 | ·
CC1(C)CC(=O)C=C(NC2CCCC(O)C2)C1 (stereo not given) | · | -2 | · | -0.9 | ·
Cc1cc(C)c2c(n1)sc1c(-c3ccccc3)c(C#N)c(N)nc12 | -27 | 5 | 5% | -9.6 | -1
CCCCOc1ccc(/C(O)=C2/C(=O)C(=O)N(Cc3cccnc3)C2c2ccncc2)c(C)c1 (stereo not given) | -37 | -11 | -18% | 2.9 | 1
Cc1ccc(-c2nn(-c3cccc(F)c3)cc2CN(Cc2nccn2C)C(C)C)o1 | · | 28 | 22% | 3.1 | -24
CCC1(c2ccc(Cl)cc2)NC(=O)N(Cc2ccc(C(=O)OC)cc2)C1=O (stereo not given) | · | 3 | 5% | 4.5 | 15
COc1ccc(OCC(=O)Nc2cc(OC)cc(OC)c2)cc1 | -34 | 2 | 69% | 1.6 | -4 | Arbovirus inh repeat=-2
NC(=O)c1nnn(-c2cccc(C(F)(F)F)c2)c1-c1ccccc1 | · | -13 | 1% | 2.1 | ·
Cc1ccc(CNC(=O)CCC2CCCN(Cc3cccc4ncccc34)C2)o1 (stereo not given) | · | -10 | -5% | -1.3 | -1
Cc1cccc(C)c1OCCNC(=O)C(=O)NCc1ccco1 | · | -6 | -5% | -2.2 | -5
CCOc1cc(NC(=S)NCCCN2CCOCC2)c(OCC)cc1NC(=O)C(C)C | -10 | -4 | -5% | -0.8 | 9

Continued, overlapping the part above by 2 compounds.
SMILES | YopH inh | Mtb betalactam | Mtb H37Rv | RecA splice inh | Arbovirus inh | others
Cc1cccc(C)c1OCCNC(=O)C(=O)NCc1ccco1 | · | -6 | -5% | -2.2 | -5
CCOc1cc(NC(=S)NCCCN2CCOCC2)c(OCC)cc1NC(=O)C(C)C | -10 | -4 | -5% | -0.8 | 9
COc1cccc(NC(=O)CSc2nc3ccccc3nc2N2CCCC2)c1 | · | 3 | · | 0.3 | ·
COc1ccc(S(=O)(=O)Nc2cc(C(=O)NCCCOC(C)C)ccc2N2CCOCC2)cc1 | · | 3 | -5% | 0.8 | 5
Cc1cccc(NC(=O)Nc2nnc(N3CCCCC3C)s2)c1C (stereo not given) | -27 | -5 | 11% | -1.9 | 0
O=C(C[n+]1ccccc1)Nc1c(Cl)cc(Cl)cc1Cl | · | -2 | -2% | -8.4 | 4
CSc1nc(C)nc(N/C=C(\C#N)S(=O)(=O)c2ccccc2Cl)n1 | · | -6 | -7% | 1.3 | ·
CCN1C(=O)c2ccccc2S(=O)c2ccc(C(=O)NCCCN3CCCC3=O)cc21 (stereo not given) | 4 | -4 | -11% | 3.8 | 2 | Arbovirus inh repeat=1
Cc1ccc(-n2nnnc2SCC(=O)Nc2sccc2C#N)cc1 | -17 | 2 | 0% | -0.9 | 2
COc1ccc(NC(=O)CN2C(=O)C(C)Oc3ccccc32)c(OC)c1 (stereo not given) | -55 | -3 | 13% | 1.5 | -4
COc1ccc(NC(=O)Nc2cccc3ccccc23)cc1S(N)(=O)=O | · | 3 | · | 2.8 | ·
CCOC(=O)N1CCN(CCC(=O)Nc2ccc(C)c(Br)c2)CC1 | -42 | 95 | 6.7µM* | 1.9 | 10
O=C(Nc1ccc(Cl)cc1)C1CCCN(S(=O)(=O)c2cnc[nH]2)C1 (stereo not given) | -41 | -7 | -15% | · | 4
CC(C)C(=O)NC(Nc1ccccc1F)C(Cl)(Cl)Cl (stereo not given) | -26 | 8 | -6% | -1.7 | 6
O=C(NCc1ccccn1)c1ccc2c(=O)n3nc(Nc4ccccc4)sc3nc2c1 | · | 10 | · | -8.6 | ·
O=C(Oc1ccccc1)c1cc2ccccc2o1 | 0 | 95 | 13% | 17 | 14
O=C(NC1CC(=O)N(c2ccccc2)C1)N1CCN(C(=O)c2ccco2)CC1 (stereo not given) | · | -4 | · | -0.1 | ·
Cc1cc(C(C)(C)C)cc(C)c1C[n+]1ccc2ccccc2c1 | · | -3 | · | -0.7 | ·
S=C(Nc1ccccc1)N1CCOCCOCCN(C(=S)Nc2ccccc2)CCOCCOCC1 | · | 2 | 5% | 2.0 | ·
CCCN1CN(Cc2ccccc2)CNC1=S | -25 | -2 | -1% | 2.6 | 11
O=C(CCN1CCCO1)NC1CCCc2c1cnn2-c1ccccc1F (stereo not given) | · | -2 | · | -2.1 | ·
COc1cccc(N/C(SCc2cccc([N+](=O)[O-])c2)=C(/C#N)C(=O)NCc2cccs2)c1 | -24 | -1 | 15% | -0.9 | 4
O=C(CCC(=O)c1ccc(F)cc1)OC1CCOC1=O (stereo not given) | -28 | 9 | -4% | -2.9 | 5
Cc1cccc(NC(=O)NCCc2ccc(Cl)cc2)c1 | · | 5 | 9% | 4.2 | -5
Cc1cc(C)n(C(=O)c2ccc(NC(=O)C3COc4ccccc4O3)cc2)n1 (stereo not given) | -42 | 72 | 12% | 12 | -1
O=[N+]([O-])c1cccc(/C=N/Nc2nccnc2Cl)c1 | 9 | -8 | -5% | -17 | -5
COC(=O)C1CCN(C(=O)Cc2ccc(Br)cc2)CC1 | 6 | -2 | -8% | -0.6 | 9
COC(=O)C1=CN(Cc2ccc(OC)c(OC)c2)C=C(C(=O)OC)C1c1cccc(OC)c1OC | · | -1 | · | -0.1 | ·
CCn1c(CSc2ncccn2)nnc1SCC(=O)N1c2ccccc2CC1C (stereo not given) | -36 | 74 | 4% | 0.8 | -2
COc1ccc(-c2cc(C(=O)Nc3c(Cl)cc(Cl)cc3Cl)c3ccccc3n2)cc1OC | -42 | 45 | 8% | -17 | -9
COCCCN1C(=O)C(=O)/C(=C(/O)c2ccc(C)cc2)C1c1ccccc1 (stereo not given) | -3 | 7 | -4% | -1.6 | 6

Screens deposited in PubChem by several laboratories.
